Screening data from PubChem.
PrP UTR inh – inhibition of PrP 5' UTR reporter expression; AID 488862, 2010; cell-based PrP 5' UTR mRNA reporter, plate reader; inhibition, % (no concentration beside the values); 340,000 tested, 0.35% active;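 active means every replicate at 50% or more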;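 further: 0 = median of the neutral control wells; tested in H4 reporter cells; numbers are from one replicate; inactives centre near -14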
Mtb hypoxia rep – PubChem AID 1159583 | M. tuberculosis hypoxia-regulated fluorescent reporter, fluorescence | fluorescence inhibition, % (test concentration not listed) | 300,000 tested, 0.1% active;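 active means 35 to 45% if threefold the growth effect, above 45% if 1.5-fold the growth effect; inactive means the rest, general growth blockers included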;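 further: wells of about 50 µL received 100 nL stock; 0% = vehicle wells and 100% = reference inhibitor wells; whole bacteria with a GFP reporter of the hypoxia response; strong numbers were not always called active; many hits fall short of the cut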
Sa ugtP lethal – growth inhibition of ugtP-null S. aureus, primary screen, RN4220 ugtP deletion, OD600; growth inhibition, % (test concentration not listed); 330,000 tested, 0.54% active; 16 h; some inactives read as strong as hits;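 active means z-score under -3 and OD600 up to 0.15 on both plates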;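 further: plate controls were untreated wells for no effect and antibiotic for full effect; wells of about 80 µL received 100 nL stock; the first replicate is given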
RN4220 kill – growth inhibition of S. aureus RN4220, primary screen, OD600. inhibition, % (no concentration beside the values). 16 h. 330,000 tested, 0.33% active. AID 1259311, 2017;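 active means z-score of -3 or lower and OD600 up to 0.18 on both plates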;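 further: plate controls were untreated cells for no effect and reference antibiotic for full effect; stock transfer was 100 nL into about 80 µL; one replicate is shown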
BJeLR viability – MLPCN primary cell-based screen for lethality selective to Ras in HRASV12 cells; BJeLR (HRASV12) viability, CellTiter-Glo ATP luminescence, 48 h; reference of the scale not given here; inhibition, % (no concentration beside the values); 300,000 tested, 0.17% active; AID 1554, 2009;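 active means replicate mean above 50%; inconclusive means above 50% but judged a plate artefact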;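 further: 50 nL library stock added to about 25 µL; numbers are from one replicate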
Autofluor counter – counter-screen for toxin protease inhibitors: compound fluorescence; compound autofluorescence counterscreen, microsphere flow cytometry; hits give high values; fluorescence intensity (concentration not given with the values); 360,000 tested, 3.1% active;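 active means at least 3 SD above the mean of all compounds, about 16000 in these data; inconclusive means too few beads counted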;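 further: 100 nL of 1 mM stock went into each well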
Mtb hypoxia rep growth – further read-out of Mtb hypoxia rep, marked with its call; growth inhibition, %; measured here: M. tuberculosis growth (absorbance);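 0% = vehicle and 100% = reference antibiotic; read after six days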
The depositor's hits bear a star; ? = inconclusive; · = no result given; & = joins results of further samples.

#1 O=C(COC(=O)C1CC(=O)N(Cc2ccco2)C1)Nc1ccc(F)cc1F (stereo not drawn)
#2 CC(OC(=O)Cc1ccc(F)cc1)C(=O)N1CCc2ccccc21 (stereo not drawn)
#3 CC(C)Oc1ccc(/C=N/NC(=O)c2ccc(N(Cc3ccccc3)S(C)(=O)=O)cc2)cc1
#4 COc1ccc(/C=N/NC(=S)Nc2cccc(C(=O)O)c2)cc1
#5 CC(C)C[C@H](NC(=O)c1ccc(OC2CCN(C(=O)C3CC3)CC2)cc1)C(N)=O
#6 COc1ccc(-c2noc(CCC(=O)Nc3ccc(C)c(C)c3)n2)cc1
#7 CC(C(=O)N=Nc1c(O)[nH]c2ccccc12)n1cnc2ccccc2c1=O (stereo not drawn)
#8 Cc1ccc2oc(=O)c3cnn(CC(=O)NCCCOC(C)C)c3c2c1

screen / no.,1,2,3,4,5,6,7,8
PrP UTR inh,-12,-24,-8,-2,-3,-32,48,-10
Mtb hypoxia rep,4,-5,·,·,10,-2,14,-3
Mtb hypoxia rep growth,4,0,·,·,11,3,4,3
Sa ugtP lethal,2,10,·,·,3,0,0,1
RN4220 kill,1.9,2.5,·,·,1.7,-1.0,1.7,14
BJeLR viability,·,·,-2,-3,8,3,-11,-2
Autofluor counter,3992,5742,2379,2005,4008,5842,2080,5678

#9 COc1ccc(C2C(C#N)=C(N)Oc3c2c(=O)oc2ccccc32)cc1Cn1cc([N+](=O)[O-])cn1 (stereo not drawn)
#10 CC1=C(C(=O)OC(C)C)C(c2ccc(O)cc2)NC(=O)N1 (stereo not drawn)
#11 Cc1ccccc1N1CCN(C2CCCN(C(=O)CCc3c(C)noc3C)C2)CC1 (stereo not drawn)
#12 COc1ccc(N2C(=O)CCC(C(=O)Nc3cccc(C)n3)C2c2ccc(OC)c(OC)c2)cc1 (stereo not drawn)
#13 COc1cc([N+](=O)[O-])ccc1NC(=O)CCCOc1cccc(C)c1
#14 Cc1ccc(OCC(=O)N/N=C\c2cccn2C)c([N+](=O)[O-])c1
#15 Cc1cc2c(cc1S(=O)(=O)N1CC(C)CC(C)C1)OCC(=O)N2 (stereo not drawn)
#16 COCCNc1c2c(nc3c(-c4ccccc4)c(C)nn13)CCC2

screen / no.,9,10,11,12,13,14,15,16
PrP UTR inh,-13,-19,-12,1,-2,-20,-13,-28
Mtb hypoxia rep,·,0,-1,-2,7,·,5,5
Mtb hypoxia rep growth,·,9,10,1,7,·,5,10
Sa ugtP lethal,-7,1,-2,-9,-4,·,7,8
RN4220 kill,0.0,3.2,4.1,-4.0,8.7,·,13,3.4
BJeLR viability,-1,2,2,-7,-6,-1,0,-5
Autofluor counter,2889,3524,4263,9649,4832,4350,6520,3851

#17 CCN1CCN(S(=O)(=O)c2ccc3c4c(cccc24)C(=O)N3CC)CC1
#18 CCn1c(N2CCN(CC(=O)Nc3cccc(C)c3C)CC2)nc2ccccc21
#19 O=c1c(/C=N/O)coc2ccc3ccccc3c12
#20 CCc1ccc(NC(=O)CN(C(=O)N2CCN(CC)CC2)S(=O)(=O)c2ccc(C)cc2)cc1
#21 CNS(=O)(=O)c1ccc2c3c(cccc13)C(=O)N2C
#22 COc1ccc(CCNC(=O)CN(CCc2ccccc2)S(C)(=O)=O)cc1
#23 Cc1ccc(COC(=O)CCc2nc3ccccc3c(=O)[nH]2)cc1
#24 COCCCNC(=O)CSc1nc2c(sc(=S)n2-c2cc(Cl)ccc2OC)c(=O)[nH]1

screen / no.,17,18,19,20,21,22,23,24
PrP UTR inh,12,-5,-6,-5,-20,-15,-11,3
Mtb hypoxia rep,4,6,·,0,-4,3,8,12
Mtb hypoxia rep growth,4,-1,·,-5,-1,4,1,0
Sa ugtP lethal,0,3,·,0,5,2,4,5
RN4220 kill,2.3,-1.3,·,2.5,1.2,3.6,2.9,6.2
BJeLR viability,·,3,-12,3,-7,5,-6,-4
Autofluor counter,?,3123,4274,·,3676,5067,2200,2929

Arranged by molar mass (highest first): some entries from above
#24 COCCCNC(=O)CSc1nc2c(sc(=S)n2-c2cc(Cl)ccc2OC)c(=O)[nH]1
#12 COc1ccc(N2C(=O)CCC(C(=O)Nc3cccc(C)n3)C2c2ccc(OC)c(OC)c2)cc1 (stereo not drawn)
#20 CCc1ccc(NC(=O)CN(C(=O)N2CCN(CC)CC2)S(=O)(=O)c2ccc(C)cc2)cc1
#9 COc1ccc(C2C(C#N)=C(N)Oc3c2c(=O)oc2ccccc32)cc1Cn1cc([N+](=O)[O-])cn1 (stereo not drawn)
#18 CCn1c(N2CCN(CC(=O)Nc3cccc(C)c3C)CC2)nc2ccccc21
#22 COc1ccc(CCNC(=O)CN(CCc2ccccc2)S(C)(=O)=O)cc1
#17 CCN1CCN(S(=O)(=O)c2ccc3c4c(cccc24)C(=O)N3CC)CC1
#7 CC(C(=O)N=Nc1c(O)[nH]c2ccccc12)n1cnc2ccccc2c1=O (stereo not drawn)
#8 Cc1ccc2oc(=O)c3cnn(CC(=O)NCCCOC(C)C)c3c2c1
#13 COc1cc([N+](=O)[O-])ccc1NC(=O)CCCOc1cccc(C)c1

screen / no.,24,12,20,9,18,22,17,7,8,13
PrP UTR inh,3,1,-5,-13,-5,-15,12,48,-10,-2
Mtb hypoxia rep,12,-2,0,·,6,3,4,14,-3,7
Mtb hypoxia rep growth,0,1,-5,·,-1,4,4,4,3,7
Sa ugtP lethal,5,-9,0,-7,3,2,0,0,1,-4
RN4220 kill,6.2,-4.0,2.5,0.0,-1.3,3.6,2.3,1.7,14,8.7
BJeLR viability,-4,-7,3,-1,3,5,·,-11,-2,-6
Autofluor counter,2929,9649,·,2889,3123,5067,?,2080,5678,4832

#15 Cc1cc2c(cc1S(=O)(=O)N1CC(C)CC(C)C1)OCC(=O)N2 (stereo not drawn)
#23 Cc1ccc(COC(=O)CCc2nc3ccccc3c(=O)[nH]2)cc1
#10 CC1=C(C(=O)OC(C)C)C(c2ccc(O)cc2)NC(=O)N1 (stereo not drawn)
#21 CNS(=O)(=O)c1ccc2c3c(cccc13)C(=O)N2C
#19 O=c1c(/C=N/O)coc2ccc3ccccc3c12

screen / no.,15,23,10,21,19
PrP UTR inh,-13,-11,-19,-20,-6
Mtb hypoxia rep,5,8,0,-4,·
Mtb hypoxia rep growth,5,1,9,-1,·
Sa ugtP lethal,7,4,1,5,·
RN4220 kill,13,2.9,3.2,1.2,·
BJeLR viability,0,-6,2,-7,-12
Autofluor counter,6520,2200,3524,3676,4274

(list continues)
#25 COCCN1C=C(C(=O)OC)C(c2ccc(OC)c(OC)c2)C(C(=O)OC)=C1
#26 O=C(Nc1ccc(NC(=O)C2CC2)cn1)c1ccccc1
#27 COc1cc(NC(=O)c2cc(S(=O)(=O)N3CCCCC3)ccc2N2CCOCC2)cc(OC)c1
#28 CC1CCCCC1NC(=O)COC(=O)c1ccc2c(=O)n3c(nc2c1)CCC3 (stereo not drawn)
#29 O=C(Nc1ccc(C(=O)N2CCN(c3ccccn3)CC2)cc1)c1ccc(Br)o1
#30 O=C(C1=CC(c2csc3ccccc23)CC(OCCCCO)O1)N1CCN(Cc2ccc3c(c2)OCO3)CC1 (stereo not drawn)
#31 CC(=O)c1cccc(NC(=O)CC2S/C(=N/N=C3CCCCCC3)NC2=O)c1 (stereo not drawn)
#32 O=C(C1CCN(S(=O)(=O)c2cnc[nH]2)CC1)N1CCN(c2ncccn2)CC1

screen / no.,25,26,27,28,29,30,31,32
PrP UTR inh,-12,-34,-15,-16,-10,·,-25,-6
Mtb hypoxia rep,5,5,2,9,2,12&14,-3,2
Mtb hypoxia rep growth,0,15,3,7,7,10&7,2,3
Sa ugtP lethal,1,1,4,4,5,7&12,6,2
RN4220 kill,5.2,-5.7,2.6,3.0,6.1,1.3&2.5,-2.0,-2.2
BJeLR viability,5,1,11,·,13,·,1,3
Autofluor counter,13159,5148,?,3973,3540,·,6811,4647

#33 O=C(NCCNc1ccc([N+](=O)[O-])cc1C(F)(F)F)c1ccccc1F
#34 C=CCNC(=S)NN=Cc1ccc(-c2ccc(Br)cc2)o1
#35 NC(=O)NC(CC(=O)Nc1cccnc1)c1cccc(Br)c1 (stereo not drawn)
#36 COc1ccc(-n2nc(C(=O)NCC(=O)N3CCC(C)CC3)c3ccccc3c2=O)cc1Cl
#37 CCN1C(=O)[C@H]2[C@@H](c3ccc(SC4CCCCC4)cc3)N[C@@](CC(C)C)(C(=O)OC)[C@H]2C1=O
#38 CCO[C@@H]1OC(C(=O)O)=C[C@H](c2coc3ccccc3c2=O)[C@H]1CCCO
#39 Cc1c(C(=O)O)[nH]c2c1C(=O)CC(c1ccccc1)C2 (stereo not drawn)
#40 C=CCOn1c(=O)c(=O)n(OCc2ccccc2)c2ccccc21

screen / no.,33,34,35,36,37,38,39,40
PrP UTR inh,-14,·,-9,-10,-10,-19,19,-10
Mtb hypoxia rep,·,13,·,-8,·,·,·,21
Mtb hypoxia rep growth,·,9,·,1,·,·,·,7
Sa ugtP lethal,-11,5,·,-9,·,·,6,7
RN4220 kill,4.9,1.6,·,1.9,·,·,6.2,3.1
BJeLR viability,-1,·,-9,1,11,9,4,2
Autofluor counter,3762,·,3196,4117,2790,3776,2146,4545

#41 CCN(Cc1cnn(C)c1)C(=O)c1ccc2nc(Cc3cccc(Cl)c3)oc2c1
#42 Cc1nc(N2CCN(c3ccccn3)CC2)c2c(C)c(C(=O)Nc3ccc(Br)cc3C)sc2n1
#43 CCc1ccc(NC2=NCCCS2)cc1
#44 O=c1cc(N2CCc3ccccc3C2)[nH]c(=O)n1-c1ccccc1Cl
#45 O=C(NCc1cccnc1)C1c2ccccc2C(=O)N1Cc1ccco1 (stereo not drawn)
#46 CCN(CC)C(=O)Nc1c(C)n(C)n(-c2ccccc2)c1=O
#47 COc1ccc(C(=O)Nc2ccc(S(=O)(=O)Nc3nccnc3OC)cc2)cc1OC
#48 Cc1ccc(-n2ncc(C(=O)NCc3ccc4c(c3)OCO4)c2NC(=O)c2ccco2)cc1C

screen / no.,41,42,43,44,45,46,47,48
PrP UTR inh,-7,-4,-5,-18,-12,-3,-13,-10
Mtb hypoxia rep,0,-16,5,5,8,12,·,10
Mtb hypoxia rep growth,-1,-3,5,13,2,7,·,9
Sa ugtP lethal,0,6,3,-2,11,-4,1,7
RN4220 kill,1.4,0.7,-1.4,-7.1,5.5,-6.3,-1.4,0.7
BJeLR viability,1,1,7,-5,-1,8,·,-10
Autofluor counter,6116,5915,5154,6143,8036,2604,3564,21894*

#49 Cc1occc1C(=O)NC1CCCN(Cc2ccc(CC(C)C)cc2)C1 (stereo not drawn)
#50 O=C(O)c1cc(S(=O)(=O)Nc2cccc3ccccc23)c(Cl)cc1Cl
#51 O=[N+]([O-])c1cccc(S(=O)(=O)Nc2ccc(S(=O)(=O)NCC3CCCO3)cc2)c1 (stereo not drawn)
#52 CC1CCN(C(=S)NC(=O)c2ccccc2)CC1
#53 Cc1ccc2cccc(Oc3ccc([N+](=O)[O-])cc3[N+](=O)[O-])c2n1
#54 COc1cccc(C2NC(=O)c3ccccc3O2)c1OCc1ccccc1F (stereo not drawn)
#55 c1ccc(-c2csc(-n3cccn3)n2)cc1
#56 O=C(Oc1ccnc2cc(Cl)ccc12)N1CCCCCC1
#57 Cc1cc(OCc2cc(C(=O)N3CCCCCC3)no2)cc(C)c1Cl

screen / no.,49,50,51,52,53,54,55,56,57
PrP UTR inh,-4,-19,-14,-13,-12,4,3,-5,-36
Mtb hypoxia rep,-2,3,-2,·,2,3,4,7,-7
Mtb hypoxia rep growth,4,3,-2,·,9,8,2,12,7
Sa ugtP lethal,6,6,8,-2,11,15,3,-3,-21
RN4220 kill,-1.8,6.6,2.3,-0.1,-3.6,9.0,2.0,20,-3.3
BJeLR viability,-1,-10,-4,-6,4,4,3,-7,-4
Autofluor counter,7565,5277,5543,2250,2275,4169,4381,·,5770
